High-throughput results (PubChem BioAssay)
GLA inh pH 4.5 – qHTS Assay for Inhibitors of Human alpha-Galactosidase at pH 4.5 | Alpha-galactosidase A (Homo sapiens), P06280 | purified enzyme, 4-MU-alpha-Gal fluorescence, pH 4.5 | activity change, negative = inhibition, % at 105 µM | 230,000 tested, under 10 active; inconclusive = small, poorly fitted or top-dose-only inhibition, or a rising curve; inactive = flat fitted curve, though single readings scatter; no compound was filed as active;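 also: 0% = full activity with enzyme and -100% = basal without enzyme; dose as in the result columns while the protocol names 77 µM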
Target sequence (P06280 whole entry, looked up): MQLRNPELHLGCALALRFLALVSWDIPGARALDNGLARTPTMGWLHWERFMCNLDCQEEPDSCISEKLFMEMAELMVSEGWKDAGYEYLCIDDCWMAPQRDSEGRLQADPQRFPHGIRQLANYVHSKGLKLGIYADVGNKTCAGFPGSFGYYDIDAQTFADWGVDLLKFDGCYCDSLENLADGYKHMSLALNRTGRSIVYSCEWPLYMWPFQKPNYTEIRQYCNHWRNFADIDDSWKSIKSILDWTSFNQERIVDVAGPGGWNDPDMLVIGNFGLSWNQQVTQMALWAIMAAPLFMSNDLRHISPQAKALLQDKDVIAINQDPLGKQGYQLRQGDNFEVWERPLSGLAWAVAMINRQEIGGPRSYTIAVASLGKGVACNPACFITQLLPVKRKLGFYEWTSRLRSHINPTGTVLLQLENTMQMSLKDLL
miR-21 reporter – qHTS Assay for Modulators of miRNAs and/orActivators of miR-21 | HeLa miR-21 FLuc reporter, luciferase, 48 h | Potency, µM (doses to about 38.3 µM), without a hit: top-dose reporter change, positive = more light | 340,000 tested, under 10 active | AID 2288, 2010; active = well fitted rising curve with a large enough effect; inconclusive = small, poorly fitted or top-dose-only effect; inactive = no such curve, though single readings can be large or run the other way;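 also: % of control where 0% means no effect; miR-21 action dims this reporter so a rising signal means less miR-21 action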
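HeLa cells stably expressing CMV-driven firefly luciferase with a downstream miR-21 binding sequence, endogenously expressing miR-21, were treated with titrations (up to about 40uM final) for 48 hours at 37 degree Celsius. Luciferase luminescence was read after lysis.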
Active calls of the source: *; ? = inconclusive; . = no result given; & = joins results of further samples.

entry | GLA inh pH 4.5 | miR-21 reporter | mol
1 | -1 | . | COc1cc([C@@H]2Oc3cc([C@H]4Oc5cc(O)cc(O)c5C(=O)[C@H]4O)ccc3O[C@H]2CO)ccc1O
2 | ? | . | Nc1c2ccccc2nc2ccccc12 (tested in a mixture with another compound)
3 | 12 | . | CC1CC2C3CC(F)C4=CC(=O)C=C[C@@]4(C)[C@@]3(F)C(O)C[C@]2(C)[C@]1(O)C(=O)COC(=O)C(C)(C)C (some centres undefined)
4 | 4 | . | COc1ccccc1OC[C@H](O)COC(N)=O
5 | 5 | . | CCCCNC(=O)[C@@H]1Cc2ccccc2N1C(=O)[C@H](N)CC
6 | -8 | . | CC1CCC(C(C)C)C(=O)C1 (centres undefined)
7 | 3 | . | COc1ccc(-c2cc(=O)c3c(O)c(OC)c(OC)c(OC)c3o2)cc1OC
8 | 1 | . | CC[C@@]1(O)CC2CN(CCc3c([nH]c4ccccc34)[C@](C(=O)OC)(c3cc4c(cc3OC)N(C)C3[C@@](O)(C(=O)OC)C(OC(C)=O)[C@]5(CC)C=CCN6CC[C@@]43C65)C2)C1 (some centres undefined)
9 | -4 | . | CCCCCCc1ccc(O)cc1O
10 | 5 | . | CC1(C)OC2CC3C4CC(F)C5=CC(=O)C=C[C@@]5(C)[C@@]4(F)C(O)C[C@@]3(C)[C@]2(C(=O)CO)O1 (some centres undefined)
11 | 0 | . | CCC(=O)O[C@@]1(C(=O)SCF)[C@@H](C)C[C@H]2[C@@H]3C[C@@H](F)C4=CC(=O)C=C[C@@]4(C)[C@]3(F)[C@@H](O)C[C@]21C
12 | -9 | . | Cc1cc(C)cc(OCC2CNC(=O)O2)c1 (centres undefined)
13 | -8 | . | COc1ccc(/C=C\C(=O)Nc2ccccc2C(=O)O)cc1OC
14 | -5 | . | NC(N)=NCCC[C@@H](N)C(=O)O
15 | -5 | . | Oc1cc2c(cc1O)[C@@H]1c3ccc(O)c(O)c3OC[C@]1(O)C2
16 | -9 | . | CCCCC(=O)O[C@]1(C(=O)CO)[C@H](C)C[C@H]2[C@@H]3CCC4=CC(=O)C=C[C@]4(C)[C@@]3(F)[C@@H](O)C[C@@]21C
17 | 5 | . | C#C[C@@]1(O)CCC2C3CCC4=CC(=O)CCC4C3CC[C@@]21CC (some centres undefined)
18 | -10&-1&-5 | . | Cc1cccc(Nc2cc(Cl)nc(SCC(=O)O)n2)c1C
19 | . | -4% | Cc1ccc(Nc2nc3ccccc3c3nnc(C)n23)c(C)c1
20 | . | -22% | COc1ccc(CNC(=O)Nc2ccc3c(c2)N(C)C(=O)c2ccccc2S3)cc1OC
21 | . | -70% | COc1ccc(OCC(=O)Nc2cc(-c3nc4ccccc4s3)ccc2C)cc1
22 | . | 13% | Cc1ccc(NC(=O)Cn2c(=O)n(CCC(=O)N3CCc4ccccc4C3)c(=O)c3ccccc32)c(C)c1
23 | . | ? | Cc1ccccc1Cc1c(C)nc2c(-c3ccccc3)c(C)[nH]n2c1=O
24 | . | ? | Cc1cccc2nc(-c3ccccn3)c(Nc3ccccc3)n12
25 | . | 1% | Cc1ccccc1C(=O)Nc1cccc(-c2nc3cccnc3s2)c1

Arranged by molecular weight (falling): part of the list above.
entry | GLA inh pH 4.5 | miR-21 reporter | mol
11 | 0 | . | CCC(=O)O[C@@]1(C(=O)SCF)[C@@H](C)C[C@H]2[C@@H]3C[C@@H](F)C4=CC(=O)C=C[C@@]4(C)[C@]3(F)[C@@H](O)C[C@]21C
3 | 12 | . | CC1CC2C3CC(F)C4=CC(=O)C=C[C@@]4(C)[C@@]3(F)C(O)C[C@]2(C)[C@]1(O)C(=O)COC(=O)C(C)(C)C (some centres undefined)
1 | -1 | . | COc1cc([C@@H]2Oc3cc([C@H]4Oc5cc(O)cc(O)c5C(=O)[C@H]4O)ccc3O[C@H]2CO)ccc1O
16 | -9 | . | CCCCC(=O)O[C@]1(C(=O)CO)[C@H](C)C[C@H]2[C@@H]3CCC4=CC(=O)C=C[C@]4(C)[C@@]3(F)[C@@H](O)C[C@@]21C
20 | . | -22% | COc1ccc(CNC(=O)Nc2ccc3c(c2)N(C)C(=O)c2ccccc2S3)cc1OC
21 | . | -70% | COc1ccc(OCC(=O)Nc2cc(-c3nc4ccccc4s3)ccc2C)cc1
7 | 3 | . | COc1ccc(-c2cc(=O)c3c(O)c(OC)c(OC)c(OC)c3o2)cc1OC
13 | -8 | . | COc1ccc(/C=C\C(=O)Nc2ccccc2C(=O)O)cc1OC
18 | -10&-1&-5 | . | Cc1cccc(Nc2cc(Cl)nc(SCC(=O)O)n2)c1C
15 | -5 | . | Oc1cc2c(cc1O)[C@@H]1c3ccc(O)c(O)c3OC[C@]1(O)C2
24 | . | ? | Cc1cccc2nc(-c3ccccn3)c(Nc3ccccc3)n12
4 | 4 | . | COc1ccccc1OC[C@H](O)COC(N)=O
12 | -9 | . | Cc1cc(C)cc(OCC2CNC(=O)O2)c1 (centres undefined)
9 | -4 | . | CCCCCCc1ccc(O)cc1O
6 | -8 | . | CC1CCC(C(C)C)C(=O)C1 (centres undefined)

Later entries.
entry | GLA inh pH 4.5 | miR-21 reporter | mol
26 | . | -1% | Cc1cccc(NC(c2ccccc2F)c2ccc3ccc(C)nc3c2O)n1 (centres undefined)
27 | . | -6% | CCOc1ccc(NC(=O)Cn2cc(C(=O)c3cccs3)c3ccccc32)cc1
28 | . | -5% | Cc1ccnc(NC(c2cccc(O)c2)c2ccc3ccc(C)nc3c2O)c1 (centres undefined)
29 | . | -2% | CCC(Sc1nc2ccccc2c2nc(CCn3cncc3C)nn12)C(=O)Nc1cccc(OC)c1 (centres undefined)

Not all compounds are listed; count on the stated rates, not on these rows.
